Source: PubChem
VACV Venus inh = qHTS for Stage-Specific Inhibitors of Vaccinia Orthopoxvirus: Venus Reporter Primary qHTS; Potency, µM (series often up to 36.5 µM), without a hit: top-dose activity change, negative = inhibition, most hits filed as inhibitors; 0.46% of 330,000 active; Vaccinia virus Venus reporter expression, fluorescence; AID 720580, 2013; active means well fitted inhibition curve with a large enough effect; inconclusive means small, poorly fitted or top-dose-only effect; inactive means no such curve, though single readings can be large or run the other way; tested in A549 cells; note: nearly all actives have a fitted effect of over 30% in size; inactives centre near -10
VACV mCherry inh = qHTS for Stage-Specific Inhibitors of Vaccinia Orthopoxvirus: mCherry Reporter Primary qHTS | Potency, µM (top dose mostly 36.5 µM), without a hit: top-dose activity change, negative = inhibition, actives largely listed as inhibitors | 0.63% of 310,000 active | Vaccinia virus mCherry reporter infection, fluorescence; about a quarter of the inactives have no number; active = well fitted inhibition curve with a large enough effect; inconclusive = small, poorly fitted or top-dose-only effect; inactive = no such curve, though single readings can be large or run the other way; tested in A549 cells; note: nearly all actives have a fitted effect of over 35% in size; inactives centre near -10
Starred values were filed as active, the others as inactive; i = inactive; ? = inconclusive; nt = not tested or not shown; & = joins results of further samples; [ ] = another dose, or the depositor's remark. % is set by controls: 0 for no effect and ±100 for the full control effect; potency is the fitted concentration of half-maximal effect.

Below each compound: VACV Venus inh | VACV mCherry inh
1: C=CCN(CC=C)CCOc1ccc2ccccc2c1
→ -11% | -14%
2: O=C1CS/C(=C/C(=O)c2ccccc2)N1
→ -3% | -6%
3: Cc1cc(C)nc(N/N=C/c2ccccc2OCc2ccc(Br)cc2)n1
→ -5% | -11%
4: O=[N+]([O-])c1ccc(C=NN2CCNC2=S)o1
→ -8% | -4%
5: Cc1ccc2nc3c(cc2c1)c(NS(=O)(=O)c1ccccc1)nn3CC(C)C
→ -8% | nt
6: Cc1nccn1CCC(=O)O
→ 19% | nt
7: O=[N+]([O-])/C(C(Cl)=C(Cl)Cl)=C(/Sc1ccccc1)N1CCCCC1
→ ? | ?
8: Cc1cc(C(=O)OCC(=O)N2CCN(C(=O)c3ccco3)CC2)c(C)n1-c1ccc(F)cc1
→ -4% | -10%
9: O=C(Cn1nc(-c2ccccc2)c2ccccc2c1=O)Nc1ccccn1
→ ? | nt
10: Cc1ccc(CNS(=O)(=O)c2c(C(=O)N3CCCCC3)c(C)n(C)c2C)cc1
→ -12% | -23%
11: CC(C)CCn1c(N2CCC(C(N)=O)CC2)nc2c1c(=O)[nH]c(=O)n2C
→ 4% | 1%
12: CC1CCc2c(sc(NC(=O)CCCOc3ccc(C(C)(C)C)cc3)c2C(N)=O)C1 (centres undefined)
→ -7% | -7%
13: Cc1cccc2nc(CSC(=N)N)c(Br)n12
→ -24% | -10%
14: CCNCCNC(=O)c1c(O)c2cccc3c2n(c1=O)CCC3
→ -11% | nt
15: COCCn1c(SCC(=O)c2[nH]c(C)c(C(C)=O)c2C)nc2ccccc21
→ -3% | -11%
16: COc1ccc(CN(C)C(=O)Cn2cnc3c(SC)nc(N)nc32)cc1OC
→ -12% | i
17: COCCNC(=O)c1onc(CSc2cccc(OC)c2)c1C(=O)NCCOC
→ -5% | i
18: Cc1ccc(C)c(NC(=O)COC(=O)c2cccc(S(=O)(=O)N3CCCC3)c2)c1
→ 1% | i
19: Cn1c(-c2ccc(Cl)nc2)nc2ccccc21
→ -16% | -2%
20: COc1ccccc1CNc1nc(NCc2ccc3occc3c2)c2sccc2n1
→ -8% | i
21: CCCN(C(=O)c1cc2c(=O)oc3ccccc3c2s1)c1ccc(CC)cc1
→ -26% | -18%
22: COc1ccc(OCC(=O)Nc2ccccc2OC(F)F)cc1
→ -23% | nt
23: CCCS(=O)(=O)N1CCCC(C(=O)NCCc2ccccc2)C1 (centres undefined)
→ -15% | -1%
24: CCCc1cc(=O)[nH]c(SCC(=O)Nc2ccc(C(=O)Nc3ccccc3OC)cc2)n1
→ -5% | i
25: O=C(O)CCc1ccc(-c2ccc(F)cc2)n1Cc1ccco1
→ -5% | i
26: CC(C)(C)C1CCC(C(=O)Nc2cccnc2)CC1 (centres undefined)
→ -13% | i
27: Cc1cc(C)n(-c2nc(C)c(C)c(=O)n2CC(=O)Nc2cccc([N+](=O)[O-])c2)n1
→ -13%[7.34 µM] | -4%[7.34 µM]
28: CCn1c(C(=O)NCc2ccccc2)cc2sc(Cl)cc21
→ -12% | -13%
29: CCCCOC(=O)c1ccc(Nc2ccc([N+](=O)[O-])cn2)cc1
→ 1% | -12%
30: Cc1cc(=O)oc2c3c(cc(OCC(=O)NCc4ccco4)c12)OC(C)(C)CC3
→ -12% | 4%
31: COC(=O)C1=C(O)/C(=C\c2ccc(OCC(=O)Nc3ccccc3OC)cc2)N=C1C
→ 0%[7.34 µM] | 18%[7.34 µM]
32: CCOC(=O)[C@]12CCC=C1N(CCC1=CCCCC1)C(=O)[C@H](CC(=O)NCc1cccc3ccccc13)C2
→ -6% | -12%
33: CCOC(=O)C(CC)n1cnc2c(nnn2-c2cccc(OC)c2)c1=O (centres undefined)
→ -14% | i
34: COC(=O)C1=C(C)NC2=C(C1c1ccc(O)cc1)S(=O)(=O)c1ccccc12 (centres undefined)
→ -17% | nt
35: Cc1cc(C)c(NC(=O)CSc2cn(CC(=O)N3CCOCC3)c3ccccc23)c(C)c1
→ -2% | -3%
36: COc1cccc(NC(=O)CSc2nnnn2C2CCCCC2)c1
→ -21% | -7%
37: CC(=O)Nc1ccc(S(=O)(=O)Nc2ccc(S(=O)(=O)Nc3ncccn3)cc2)cc1
→ 1% | -14%
38: OCCC1CN(Cc2cnn(-c3ccc(F)cc3)c2)CCN1Cc1ccsc1 (centres undefined)
→ -12% | i
39: CCOC(=O)c1ccc(NC(=O)CCc2c(C)nc3c(-c4ccc(F)cc4)c(C)nn3c2C)cc1
→ -7% | -15%
40: CN(Cc1ccccc1)c1nc2c(S(=O)(=O)c3cccc(Cl)c3)nnn2c2ccsc12
→ -9% | -9%
41: COc1cc(CC(=O)N(c2ccccc2)c2nc(C)cs2)cc(OC)c1OC
→ -4% | i
42: CCC(O)C(C)(C)C (centres undefined)
→ -13% | i
43: CCn1cc(C(=O)N2CCN(Cc3ccc4c(c3)OCO4)CC2)c(=O)c2ccc(C)nc21
→ ? | nt
44: CCN1C[C@@H]2[C@@H]3C(=O)N(Cc4ccccc4)C(=O)[C@@H]3[C@](CC)(C1=O)N2C(=O)c1ccc(F)cc1
→ -5% | i
45: COc1cccc(C(=O)Nc2ccc(S(=O)(=O)N3CCCCC3)cc2)c1OC
→ ? | ?
46: COc1ccc(C2c3c(oc4ccc(F)cc4c3=O)C(=O)N2Cc2ccc3c(c2)OCO3)cc1 (centres undefined)
→ -4% | 1%
47: CCC(C)n1c(O)c(C=Nc2cccc(C(F)(F)F)c2)c(=O)[nH]c1=S (centres undefined)
→ 16% | 12%
48: Cc1oc(-c2ccccc2Cl)nc1CS(=O)(=O)CC(=O)NCCc1ccccc1
→ ? | -25%
49: Cc1ccc2c(c1)cc(CN(Cc1ccco1)C(=O)N1CCOCC1)c1nnnn12
→ -10% | -11%
50: O=C(CSc1ccccn1)N1CCNC1=O
→ -8% | i
51: COCCNC(=S)NNC(=O)c1cccs1
→ -11% | -12%
52: CC(C)C(NC(=O)C1(NC(=O)OCc2ccccc2)CCCC1)C(=O)O (centres undefined)
→ -9% | i
53: CC(=O)Nc1ccc(S(=O)(=O)NCC(=O)NNC(=O)COc2ccccc2Cl)cc1
→ -7% | -15%
54: COc1ccc(Cl)cc1-c1nc(SCC(=O)NC(C)C(C)C)n[nH]1 (centres undefined)
→ -11% | -1%
55: Oc1[nH]c2ccccc2c1N=Nc1ccc(F)cc1
→ 68%[activator] | -1%
56: Cc1ccc2c(=O)cc(C(=O)Nc3ccc(S(=O)(=O)N4CCCC(C)C4)cc3)oc2c1C (centres undefined)
→ -27% | -14%
57: Cc1nnc(C)n1-c1ccc(C(=O)Nc2cccc(Br)c2)cc1
→ -1% | 7%
58: NC(=O)CC(c1ccccc1)c1ccc2c(c1)OCO2 (centres undefined)
→ -3% | i
59: COC(=O)c1ccc2nc(-c3ccc(OC)c(OC)c3)c(Cc3ccccc3OC)n2c1
→ -1% | i
60: COc1nccnc1NS(=O)(=O)c1ccc(N=Cc2c(C)[nH]n(-c3ccccc3)c2=O)cc1
→ -3% | 6%

Remaining list, next part:
Below each compound: VACV Venus inh | VACV mCherry inh
61: Cc1cccc(C)c1NC(=O)CCSCCc1ccccn1
→ -6% | -7%
62: N#Cc1ccc(Nc2nc(-c3ccc(O)cc3O)cs2)cc1C(F)(F)F
→ 11µM* | ?
63: Cc1ccccc1NC(=O)c1ccccc1NC(=O)c1cccs1
→ -6% | 8%
64: CCCNC(=O)NS(=O)(=O)c1cnccc1Sc1ccc(Cl)c(Cl)c1
→ -20% | nt
65: COc1ccccc1C(=O)Nc1nc(-c2ccc3c(c2)OCCO3)cs1
→ -4% | -6%
66: Cc1ccccc1S(=O)(=O)N1[C@@H](c2ccccc2)C(C(=O)O)=CC[C@H]1c1ccc(Cl)cc1
→ -11% | i
67: COc1ccc(C(=O)O)nc1C
→ 1% | i
68: CCCOC(=O)c1cccc(NC(=O)c2c(-c3ccccc3Cl)noc2C)c1
→ -5% | -1%
69: CCc1nnc(NC(=O)c2ccc(S(=O)(=O)N3CCOCC3)cc2)s1
→ 1% | -5%
70: COc1ccc(OC)c(NC(=O)C2(C)CCN2C(=O)CC2CC2)c1 (centres undefined)
→ -4% | i
71: O=S(=O)(c1ccc(C(F)(F)F)cc1)N1CCN(c2nc(-c3ccccc3)nc3ccccc23)CC1
→ -11% | -14%
72: COc1ccc(/C=C(/C#N)c2nc(-c3ccc(-c4ccccc4)cc3)cs2)cc1OC
→ -16% | -23%
73: O=C(/C=C/c1ccco1)N1CCN(S(=O)(=O)/C=C/c2ccccc2)CC1
→ -7% | -18%
74: CCC1CCCCN1C(=O)CSc1nnc(-c2ccco2)o1 (centres undefined)
→ 0% | 0%
75: Cc1ccc(NC(=O)COC(=O)CN2CCSC2=O)cc1F
→ -8% | i
76: Clc1ccc(C=NN2CCCCCC2)cc1
→ -1% | i
77: COc1ccccc1C(=O)Oc1ccc2ccc(=O)oc2c1
→ 4% | -29%
78: COc1ccc(C(=O)N[C@H](C(=O)NCC2CCCCC2)C(C)C)cc1
→ -16% | -20%
79: CCc1ccc(NC(=S)Nc2ccc3[nH]c(=O)[nH]c3c2)cc1
→ 1% | -7%
80: O=C(Cc1coc2cc3c(cc12)CCC3)NCC1(N2CCCCC2)CCCCC1
→ -23% | ?
81: CC1(c2ccccc2)NC(=O)N(Cc2ccc([N+](=O)[O-])cc2)C1=O (centres undefined)
→ -5% | -16%
82: COc1ccc(-n2c(O)c(C=NCCN3CCN(C(C)=O)CC3)c(=O)[nH]c2=S)cc1
→ -17% | -20%
83: CCOC(=O)c1cnn2cc(-c3[nH]ncc3[N+](=O)[O-])cnc12
→ -7% | -9%
84: COc1ccc(OC)c(NC(=O)C2CCCN2C(=O)NC2CCCCC2)c1 (centres undefined)
→ -9% | -16%
85: O=C(CSc1cn(CC(=O)N2CCCCCC2)c2ccccc12)NCC1CCCO1 (centres undefined)
→ -2% | -9%
86: CCC(C)NC(=O)Cn1cc(S(=O)(=O)N2CCCC2)c(S(=O)(=O)N2CCCC2)c1 (centres undefined)
→ -7% | -12%
87: COc1c(C)cc(C(O)c2ncc(-c3ccccc3F)[nH]2)cc1C (centres undefined)
→ -7% | -2%
88: O=C(Nc1cccc([N+](=O)[O-])c1)N1CCCc2ccccc21
→ -4% | -13%
89: O=C(NCC1CCCN1S(=O)(=O)c1cccs1)C(=O)Nc1ccccc1Cl (centres undefined)
→ -13% | i
90: O=[N+]([O-])c1cc(C(F)(F)F)cc([N+](=O)[O-])c1NCCCN1CCOCC1
→ -3% | -15%

Of the compounds above, three contain bromine:
Below each compound: VACV Venus inh | VACV mCherry inh
3: Cc1cc(C)nc(N/N=C/c2ccccc2OCc2ccc(Br)cc2)n1
→ -5% | -11%
13: Cc1cccc2nc(CSC(=N)N)c(Br)n12
→ -24% | -10%
57: Cc1nnc(C)n1-c1ccc(C(=O)Nc2cccc(Br)c2)cc1
→ -1% | 7%

(continued)
Below each compound: VACV Venus inh | VACV mCherry inh
91: NC(=O)c1cccc(-c2cccc(OC(=O)NC3CCCCC3)c2)c1
→ -12% | -6%
92: CCOC(=O)c1oc2cc(O)ccc2c(=O)c1-c1csc(C)n1
→ -6% | nt
93: COc1cccc(OC)c1C(=O)N1CCN(Cc2c[nH]c3ccccc23)CC1
→ -9% | -15%
94: CCOc1ccc(CCN2C(=O)C(=O)N([C@@H](CC(C)C)CN3CCC[C@@H]3CN3C(=O)C(=O)NC[C@@H]3Cc3ccccc3)C[C@@H]2Cc2ccc(O)cc2)cc1
→ ? | -21%
95: Cc1onc(-c2c(F)cccc2Cl)c1C(=O)N1CCOC12CCCCC2
→ -5% | i
96: COc1ccc(N2C(=O)CC(NCc3ccncc3)C2=O)cc1 (centres undefined)
→ 4% | -9%
97: CCS(=O)(=O)c1ccc(S(=O)(=O)CC)s1
→ -5% | i
98: O=C(O)C1CCCN(S(=O)(=O)c2ccc(F)cc2)C1 (centres undefined)
→ -4% | nt
99: COC(=O)CN(c1ccc2c(c1)OCO2)S(=O)(=O)c1c(C)[nH]c(=O)[nH]c1=O
→ -7% | i
100: CCOC(=O)c1c(NC(=O)C(C)Sc2cccc[n+]2[O-])sc2c1CCN(Cc1ccccc1)C2 (centres undefined)
→ -2% | -21%
101: CSc1cccc(NC(=O)c2cnn(-c3ccc(F)cc3)c2-n2cccc2)c1
→ 1% | -10%
102: Cn1ncc(Br)c1C(=O)N/N=C/c1cccc(OC2CSC2)c1
→ -10% | -16%
103: CCCCN1CC(COCc2ccccc2)Oc2cccc(Oc3ccc(C(C)C)cc3)c2S1(=O)=O (centres undefined)
→ ? | -19%
104: Cc1ccc(C2C(=O)N(C3CCCC3)CC(=O)N2CC2COc3ccccc3O2)cc1 (centres undefined)
→ -12% | i
105: COc1ccc(OC)c(CCNC(=O)c2cc3cccc4c3n2CCS4)c1
→ -5% | -7%
106: COc1ccccc1C(=O)NCCCNC(=O)c1cnccn1
→ -12% | -13%
107: COc1cc(CCCN2CCNC[C@@H]2Cc2ccc(O)cc2)cc(OC)c1OC
→ -11% | -2%
108: COc1ccc(C)cc1NC(=O)CN1C(=O)COc2ccc(S(=O)(=O)N3CCC(C)CC3)cc21
→ -9%&-8% | -11%&-13%
109: Cc1cccc(OCc2nnc(SCC(=O)c3ccccc3)o2)c1
→ -13% | -18%
110: CN1CCN(S(=O)(=O)c2ccc(N)cc2)CC1
→ -8% | 9%

Reprinted at random: 3 entries already listed.
Below each compound: VACV Venus inh | VACV mCherry inh
39: CCOC(=O)c1ccc(NC(=O)CCc2c(C)nc3c(-c4ccc(F)cc4)c(C)nn3c2C)cc1
→ -7% | -15%
25: O=C(O)CCc1ccc(-c2ccc(F)cc2)n1Cc1ccco1
→ -5% | i
107: COc1cc(CCCN2CCNC[C@@H]2Cc2ccc(O)cc2)cc(OC)c1OC
→ -11% | -2%
